Assay outcomes: PubChem, National Center for Advancing Translational Sciences (NCATS)
StopGo RLuc = lowers the Renilla signal of an FMDV 2A StopGo reporter; HEK cells with a luciferase reporter of 2A StopGo recoding; Potency, µM (series often up to 57.5 µM), for inactives: at the top dose signal change, negative = less light; 120,000 tested, 0.32% active; AID 1745857; active means well fitted falling curve with a large enough effect; inconclusive means small, poorly fitted or top-dose-only effect; inactive means no such curve, though single readings can be large or run the other way; note: nearly all actives have a fitted effect of over 55% in size; overnight with compound
StopGo FLuc = lowers the firefly signal of an FMDV 2A StopGo reporter. 120,000 tested, 0.23% active. Potency, µM (titrated, usually from 57.5 µM), without a hit: at the highest dose signal change, negative = less light. HEK cells with a luciferase reporter of 2A StopGo recoding; active = well fitted falling curve with a large enough effect; inconclusive = small, poorly fitted or top-dose-only effect; inactive = no such curve, though single readings can be large or run the other way; note: nearly all actives have a fitted effect of over 60% in size; overnight with compound
* hit, by the source's call; u = inconclusive; [ ] = dose if it differs, or a comment. % is set by controls: 0 for no effect and ±100 for the full control effect; potency is the fitted concentration of half-maximal effect. A portion of the library; count on the stated rates, not on these rows.

Sequence of screens – StopGo FLuc | StopGo RLuc
1	O=C(NCc1ccc(C(F)(F)F)cc1)c1ccc(CN2CCCCC2)cc1
    -12.7% | -18.0%
2	Cc1oc2ncn(CC(C)C)c(=O)c2c1C(=O)N(CCN(C)C)Cc1ccccc1
    -14.2% | -10.5%
3	COc1ccc(F)cc1CO/N=C/c1cc(Cl)c(OC)c(OC)c1
    11.9% | -9.3%[1.06 µM]
4	CCCc1nnc(NC(=O)c2ccc3[nH]c(C)cc(=O)c3c2)s1
    -12.5% | -5.9%
5	COc1ccc(OC)c(CN2C(=O)CCCCC2(C)c2nnnn2C2CCCC2)c1 (stereo not given)
    6.2% | 31.3%[activator]
6	Cc1ccc(C)c(N2CCN(C(=O)CCc3nnc4n(CC(C)C)c(=O)c5ccccc5n34)CC2)c1
    -5.5% | -4.8%
7	CCOc1ccccc1Oc1coc2cc(O)ccc2c1=O
    110.0%[activator] | 28.4%
8	Cc1oc(-c2ccccc2)nc1CSc1nc2ncccc2[nH]1
    14.9% | 10.0%
9	Cc1[nH]c(SC(C)C(=O)Nc2cccc(S(=O)(=O)N(C)C)c2)nc1Cc1ccccc1 (stereo not given)
    -5.6% | 75.8%[activator]
10	O=C(O)CC1(CNS(=O)(=O)c2ccc(Cl)cc2)CCCCC1
    12.8% | 52.2%[activator]
11	CCC1CCCCN1C(=O)CSc1nc(-c2ccco2)cc(C(F)(F)F)n1 (stereo not given)
    24.6% | 13.0%
12	CCOc1ccc(OCC)c(NS(=O)(=O)c2ccc(-c3coc(C)n3)cc2)c1
    u | -2.4%
13	CCCCOc1ccc(C(=O)NCCc2csc(-c3ccc(OC)cc3)n2)cc1
    12.6µM* | 11.2µM*
14	Cc1ccc(CNC(=O)c2cnn(-c3cccc(C)c3)c2C2CCN(C(=O)OC(C)(C)C)CC2)cc1
    -17.7% | -13.5%
15	Cc1ccc(NC(=O)Nc2nnc(C3CCCCC3)s2)cc1C
    10.3% | 9.0%

Molecules from the list above that contain a halogen:
Sequence of screens – StopGo FLuc | StopGo RLuc
1	O=C(NCc1ccc(C(F)(F)F)cc1)c1ccc(CN2CCCCC2)cc1
    -12.7% | -18.0%
3	COc1ccc(F)cc1CO/N=C/c1cc(Cl)c(OC)c(OC)c1
    11.9% | -9.3%[1.06 µM]
10	O=C(O)CC1(CNS(=O)(=O)c2ccc(Cl)cc2)CCCCC1
    12.8% | 52.2%[activator]
11	CCC1CCCCN1C(=O)CSc1nc(-c2ccco2)cc(C(F)(F)F)n1 (stereo not given)
    24.6% | 13.0%

(further entries)
Sequence of screens – StopGo FLuc | StopGo RLuc
16	Cc1ccc(C(=O)N2CCN(Cc3cc(=O)n4nc(-c5ccccc5)sc4n3)CC2)cc1
    -26.5% | -22.6%
17	Cc1cccc(OCCCCn2c(C3CC(=O)N(c4ccccc4Cl)C3)nc3ccccc32)c1 (stereo not given)
    -14.7% | -11.3%
18	CCOc1ccc(C(=O)NCCSc2c(C)[nH]c3ccccc23)cc1OCC
    -9.0% | 2.8%
19	NC(CO)C(=O)NNCc1ccc(O)c(O)c1O (stereo not given)
    -11.2% | 12.1%
20	COc1ccc(NC(=O)Nc2nnc(-c3ccccc3)s2)cc1
    163.6%[activator] | 0.0%
21	O=C1Nc2ccc(S(=O)(=O)Nc3ccccc3O)c3cccc1c23
    10.5% | 270.1%[activator]
22	CN(Cc1ccc(C(F)(F)F)cc1)Cc1nc2c([nH]1)c(=O)n(C)c(=O)n2C
    11.8% | 8.5%
23	CCN(CC)CCCNC(=O)c1cn(CC(C)C)c(=O)c2c1c1ccccc1n2C
    2.1% | 3.9%
24	CCOc1cc(C(=O)Nc2ccc(N3CCN(C)CC3)cc2)cc(OCC)c1OCC
    -8.8% | -13.2%
25	Cc1ccc(C(c2ccc([N+](=O)[O-])cc2)c2ccc(C)s2)s1
    0.0% | 7.9%
26	COc1cc(Cl)c(NC(=O)CN(C)S(=O)(=O)c2ccc3[nH]c4c(c3c2)CCCC4)c(OC)c1
    u | -23.5%
27	Cc1cccc(Nc2nc(N)c(C(=O)c3ccccc3Cl)s2)c1
    45.6%[activator] | -15.7%
28	CC(C)CSc1nnc(SC(C)C(=O)Nc2ccccc2F)s1 (stereo not given)
    178.2%[activator] | 7.0%
29	COc1ccccc1CCNC(=O)c1cc2c(=O)n3cccc(C)c3nc2n1C
    1.9% | -2.2%
30	N#Cc1cccc(C(=O)Nc2ccc(Cl)c(C(F)(F)F)c2)c1
    2.2% | -2.0%

Next section.
Sequence of screens – StopGo FLuc | StopGo RLuc
31	CCOc1ccc(-c2cnc(NCc3ccc(OC)cc3OC)n2C)cc1
    1.5% | 1.4%
32	COc1ccc(-c2cc(C(=O)Nc3sc4c(c3C#N)CCCC4)no2)cc1OC
    -10.3% | -6.9%
33	COc1cc(-c2noc(-c3cc(C(C)C)[nH]n3)n2)cc(OC)c1OC
    106.9%[activator] | 64.6%[activator]
34	Cc1ccc(-n2c(=O)c3c(C)c(C(=O)N(C)C)sc3n(Cc3ccccc3C)c2=O)cc1C
    -20.7% | -7.3%
35	O=C(c1ccccc1)c1ccc(OCC(=O)c2c[nH]c3ccccc23)cc1
    22.0% | 2.7%
36	COc1ccc2nc(NC(=O)c3nn(C(C)C)c(=O)c4ccccc34)sc2c1
    10.7% | -4.5%
37	CCn1cc(C(=O)NCCc2ccc(Cl)cc2)c(=O)c2cc(S(=O)(=O)N3CCCCCC3)ccc21
    -14.3% | -3.2%
38	CC(C)Oc1ccc(CNC(=O)c2cccc(NC(=O)c3nsc4ccccc34)c2)cc1
    110.9%[activator] | 5.1%
39	Brc1ccoc1-c1nc(-c2ccccc2)no1
    150.4%[activator] | 8.3%
40	N#Cc1ccc(C[B][B][B][B][B][B][B][B][B][B]Cc2ccc(C#N)cc2)cc1
    -1.4% | -0.8%
41	CNC(=S)NNC(=O)c1ccncc1
    -5.8% | -4.0%
42	O=C(Nc1nc2ncccn2c1-c1ccc(F)c(F)c1)c1ccccc1
    2.6% | 1.1%
43	CCOc1ccccc1Oc1coc2cc(OCC(=O)N3CCCCC3)ccc2c1=O
    9.0% | 37.6%[activator]
44	CCOC(=O)c1c(C)[nH]c(C)c1S(=O)(=O)N1CCC(C(=O)Nc2ccc(F)cc2F)CC1
    -5.1% | -8.1%
45	CCC(=O)c1c[nH]c2ccccc12
    0.0% | 1.0%

Next results:
Sequence of screens – StopGo FLuc | StopGo RLuc
46	Fc1ccc(N=Cc2cccc(Oc3ccccc3)c2)c(F)c1F
    8.8% | -2.2%
47	COc1ccc(-c2nnc(SCC(=O)Nc3ccc(C)cc3C)[nH]c2=O)cc1
    78.6%[activator] | 1.2%
48	Cc1ccc(NC(=O)CCCn2c(=O)c3cccn3c3ccccc32)cc1Cl
    -9.4% | -10.0%
49	O=C(NCc1cccnc1)C1c2ccccc2C(=O)N(Cc2ccccc2)C12CCCCC2 (stereo not given)
    15.7% | 112.3%[activator]
50	CN(C(=O)c1cc2c(Cl)nc3ccccc3c2s1)c1cccc(C(F)(F)F)c1
    -18.1% | -10.5%
51	Cc1ccccc1OCC(=O)NC12CC3CC(CC(C3)C1)C2
    u | u
52	O=c1oc2ccccc2c(NC2CCCC2)c1NS(=O)(=O)c1ccc(F)cc1F
    -3.9% | -9.2%
53	COC(=O)C1CN(Cc2ccc(C)cc2)CCS(=O)(=O)N1Cc1cn(Cc2ccc(F)cc2)nn1 (stereo not given)
    -4.5% | 3.7%
54	Cc1nn(CCC(=O)NCc2ccc(N(C)C)cc2)c(=O)c2nn(-c3ccccc3)c(C)c12
    3.4% | -16.4%
55	CCCN(c1ccccc1F)S(=O)(=O)c1ccc2c(c1)C(C)(C)C(=O)N2C
    -11.8% | 67.2%[activator]
56	COc1ccc(CNc2ccccc2)cc1
    0.0% | 1.2%
57	O=C(O)CCCC(=O)N1CCNC(=O)C1
    -3.4% | -0.7%
58	Cc1ccc(C)c(NC(=O)c2cn(Cc3ccccc3)nn2)c1
    24.9% | 15.9%
59	Cc1oc(-c2ccc(Cl)cc2)nc1Cn1nc(C)c2c(C)onc2c1=O
    u | u
60	C(=N\N(c1ccccc1)c1ccccc1)/c1ccco1
    -5.3% | 0.4%

Rewritten bar-delimited: 3 of the compounds above.
nr | SMILES | StopGo FLuc | StopGo RLuc
58 | Cc1ccc(C)c(NC(=O)c2cn(Cc3ccccc3)nn2)c1 | 24.9% | 15.9%
47 | COc1ccc(-c2nnc(SCC(=O)Nc3ccc(C)cc3C)[nH]c2=O)cc1 | 78.6%[activator] | 1.2%
48 | Cc1ccc(NC(=O)CCCn2c(=O)c3cccn3c3ccccc32)cc1Cl | -9.4% | -10.0%

Values in list order from above:
StopGo RLuc, entries 47 to 51 → 1.2%, -10.0%, 112.3%[activator], -10.5%, u

Additional structures.
Sequence of screens – StopGo FLuc | StopGo RLuc
61	Cc1ccc(C(=O)NCC(c2ccco2)S(=O)(=O)c2cccs2)cc1C (stereo not given)
    29.2% | 16.8%
62	CCc1ccc(C(=O)NCc2ccco2)cc1
    95.6%[activator] | 7.0%
63	O=C(Cn1c(=O)n(-c2ccccc2)c(=O)c2c3c(sc21)CCCC3)Nc1cccc(F)c1
    -21.2% | -1.9%
64	C/C=C/c1ccc(OCc2ccc(C#N)cc2)c(OC)c1
    134.9%[activator] | -3.8%
65	C/C(=N\NC(=O)C1CC1)C(C)C
    57.9%[activator] | 1.8%
66	CCc1ccc(NS(=O)(=O)c2ccc3[nH]cc(C(=O)N(C)Cc4ccco4)c(=O)c3c2)cc1
    -6.1% | 16.1%
67	Cc1cc(Cl)ccc1OCC(=O)Nc1c(Cl)ccc2nsnc12
    11.4% | -5.1%
68	CCc1cccc(C)c1NC(=O)Cn1nnc(-c2nc(-c3ccccc3F)no2)c1N
    -20.1% | -1.6%
69	CCCNc1c(NC(=O)Nc2ccccc2F)c(=O)oc2ccccc12
    -7.1% | -6.5%
70	CC(C)C(NC(=O)c1nn(C)c(=O)c2ccccc12)c1ccccc1 (stereo not given)
    -7.4% | 3.2%
71	CCCc1cc(=O)oc2cc(OCC(=O)O)c(Cl)cc12
    6.1% | 3.4%
72	CCOc1ccc(CCNC(=O)c2cc3c(=O)n(C)c4ccccc4c3s2)cc1OCC
    -24.1% | -10.1%
73	CCOc1ccc(NC(=O)c2c(Nc3ccccc3C)sc(C(=O)c3ccccc3)c2N)cc1
    -1.3% | 21.5%
74	O=C(Nc1ccc(Br)cc1)C1CCN(S(=O)(=O)c2cccc3nsnc23)CC1
    21.8% | -3.0%
75	CCOC(=O)C(NC(=O)/C=C/c1ccccc1Br)C(=O)OCC
    0.0% | -5.7%

Molecules listed so far containing an aryl thioether with sulfur outside any ring (six):
Sequence of screens – StopGo FLuc | StopGo RLuc
8	Cc1oc(-c2ccccc2)nc1CSc1nc2ncccc2[nH]1
    14.9% | 10.0%
9	Cc1[nH]c(SC(C)C(=O)Nc2cccc(S(=O)(=O)N(C)C)c2)nc1Cc1ccccc1 (stereo not given)
    -5.6% | 75.8%[activator]
11	CCC1CCCCN1C(=O)CSc1nc(-c2ccco2)cc(C(F)(F)F)n1 (stereo not given)
    24.6% | 13.0%
18	CCOc1ccc(C(=O)NCCSc2c(C)[nH]c3ccccc23)cc1OCC
    -9.0% | 2.8%
28	CC(C)CSc1nnc(SC(C)C(=O)Nc2ccccc2F)s1 (stereo not given)
    178.2%[activator] | 7.0%
47	COc1ccc(-c2nnc(SCC(=O)Nc3ccc(C)cc3C)[nH]c2=O)cc1
    78.6%[activator] | 1.2%

The list goes on.
Sequence of screens – StopGo FLuc | StopGo RLuc
76	Cc1c(C(=O)NCc2ccc(OC(C)C)cc2)sc2ncnc(N(C)C3CCCCC3)c12
    -10.2% | -5.0%
77	CCCn1c2ccccc2c2cnn(CC(=O)N3CCCC(C(=O)OCC)C3)c(=O)c21 (stereo not given)
    -3.2% | 4.1%
78	CCc1ccc(NC(=O)CCn2cnc3onc(-c4ccccc4Cl)c3c2=O)cc1
    4.5% | 11.2%
79	Cc1ccc(S(=O)(=O)Nc2cc(C(N)=O)cc(F)c2C)cc1Cl
    3.6% | 193.1%[activator]
80	CCc1cccc2c1NC(=O)C2(O)CC(=O)c1ccc(Br)cc1 (stereo not given)
    -6.5% | 2.3%
81	COCCCNC(=O)CC1CCCC1
    0.0% | 22.7%
82	COc1cccc(NC(=O)CN2C(=O)CC(c3ccco3)Sc3ccccc32)c1 (stereo not given)
    -13.6% | 26.1%
83	O=C(Nc1nc(-c2cc3ccccc3oc2=O)cs1)c1ccccc1
    1.0% | -16.4%
84	Fc1ccc(-c2noc3ncnc(Nc4ccc(F)cc4F)c23)cc1
    -2.5% | 30.1%
85	CCCc1cc(=O)[nH]c(SCc2nnc(-c3ccc(OCC)cc3)o2)n1
    37.7%[activator] | 21.7%
86	CCc1ccc(NC(=O)N2CCN(c3nnc(C)c4c(C)n(-c5ccc(Cl)cc5)nc34)CC2)cc1
    -0.6% | -11.4%
87	CC1(COc2ccc(CC3SC(=O)NC3=O)cc2)CCCCC1 (stereo not given)
    17.7%[11.5 µM] | 13.3%
88	COc1cc(CCC(=O)Nc2ccc3oc(-c4ccc(C(C)C)cc4)cc(=O)c3c2)on1
    7.4% | -7.7%
89	CCN(Cc1ccccc1)C(=O)C(C)Sc1nnc(-c2cccs2)n1C1CC1 (stereo not given)
    -12.9% | -1.1%
90	COc1ccc(NC(=O)C(CC(C)C)NS(=O)(=O)c2ccc3c(c2)oc(=O)n3C)cc1Cl (stereo not given)
    u | 2.1%
91	CCc1cccc(C)c1NS(=O)(=O)c1ccc2c(c1)CC(C)N2C(=O)C1CC1 (stereo not given)
    -4.3% | 16.7%
